SmPrx2 inh: Schistosoma Mansoni Peroxiredoxins (Prx2); Potency, µM; 65,000 compounds, 0.07% hits; S. mansoni Prx2 activity coupled to TGR/GSH (TGR is thioredoxin glutathione reductase), NADPH fluorescence loss, qHTS; some inactives read as strong as hits; Schistosoma mansoni peroxiredoxin 2 (Prx2); active means full or partial inhibition curve with a strong effect at the top dose; inconclusive means weaker partial or single-point curve; inactive means no accepted curve; further: series up to 57 µM; many of its hits are not listed in these tables
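qHTS, coupled TGR/Prx2 format; 15 min compound preincubation at RT; reaction started with H2O2 (2.5 mM aliquot); kinetic NADPH fluorescence decrease, ex 365/em 450 nm.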
LT uptake inh: qHTS Assay for Anthrax Lethal Toxin Internalization; 70,000 compounds, 0.67% hits; AID 912, 2007; Potency, µM (top dose mostly 40 µM), for the others: at the highest dose activity change, negative = inhibition, usual class: inhibitors; Cells, anthrax lethal toxin internalization, FRET ratio (460/530); active = well fitted falling ratio curve with the 530 nm signal flat; inconclusive = other ratio curves, or a change in one channel alone; inactive = flat curves in the ratio and both channels; the % refers to the ratio; further: on the % scale 0 is the no-effect control and ±100 the full control effect; nearly all actives have a fitted effect of over 50% in size; tested in ME-180 cells; beta-lactamase reporter
* hit, by the source's call; ? = inconclusive; · = not tested or not shown; & = joins results of further samples; [ ] = remark or other dose. Potency means the concentration at half of the fitted maximal effect. These rows are one share of the data; rates above refer to the full screens.

SMILES	SmPrx2 inh	LT uptake inh
COc1cccc(Cn2c(=O)cnc3cnc(Oc4ccccc4)nc32)c1	>57	5%
COc1ccc(C2C(C(C)=O)=C(C)Nc3ncnn32)cc1OC (configuration not stated)	>57	?
CN1CCN(C(=O)c2ccc(COc3ccc(Cl)cc3Cl)cc2)CC1	>57	-29%
O=C(Nc1ccccn1)N1CCOCC1	>57	8%
N#Cc1ccc(CSc2nnc(NC(=O)CN3C(=O)C4CC=CCC4C3=O)s2)cc1 (configuration not stated)	>57	?
CO[C@@H]1/C=C\CC(=O)N[C@@H](C)C(=O)OC[C@@H](OC)[C@H](C)/C=C\CC(=O)OC[C@H]1C	·	7%[8 µM]
O=C1CN(c2ccccc2Cl)C(=O)CN1c1ccccc1Cl	>57	2%
CC(=O)c1cnc(Nc2nc(C)c3ccccc3n2)nc1C	>57	2%
CCCSc1oc(-c2ccco2)nc1S(=O)(=O)c1ccccc1	>57	?
COc1ccc(OC)c(C(=O)CSc2nnc(-c3cccs3)o2)c1	>57	-2%
Cc1ccc(S(=O)(=O)N2CCOCC2)cc1C(=O)NCc1ccco1	>57	-6%
COc1ccc(NC(C)=O)cc1NC(=O)CN1CCN(C2c3ccccc3-c3ccccc32)CC1	>57	-2%
Cc1ccc(C(=O)c2coc3ccc(OCC(=O)O)cc23)cc1	>57	16%
CCC(C(=O)N1CCC2(CC1)OCCO2)c1ccccc1 (configuration not stated)	>57	?
O=c1[nH]cnc2c1nc(SCc1ccccc1)n2C1OC(CO)C(O)C1O (configuration not stated)	>57	6%
CCS(=O)(=O)n1nc(C(=O)N2CCOCC2)nc1N	>57	5%
CCOC(=O)Cn1c(=O)oc2cc(S(=O)(=O)Nc3cc(OCC)ccc3OCC)ccc21	>57	?
COc1ccc(CNC(=O)Cn2cnc3c(=O)n(C)c(=O)n(C)c32)cc1	>57	4%
O=C(Oc1cccc(Oc2ccccc2)c1)N1CCOCC1	>57	23%
COc1ccccc1OC1=NS(=O)(=O)c2ccccc21	>57	?
O=C(NCc1ccccc1Cl)C1CCN(S(=O)(=O)N2CCCCC2)CC1	>57	2%
COc1ccc(-n2cnnc2SCC(=O)c2ccc(S(=O)(=O)N3CCOCC3)cc2)cc1	>57	14%
COc1ccccc1N1CCN(Cc2nc3ccccc3c(=O)n2CC(C)=O)CC1	>57	2%
COc1cccc([C@@H]2Oc3ccc(OC)cc3/C(=N/OC[C@@H](C)[C@H](OCc3ccccc3)C(C)C)[C@@H]2O)c1	·	0%[1.6 µM]
Cc1noc(C)c1CSc1nc2sc(C)c(C)c2c(=O)n1-c1ccccc1	>57	5%
O=C(CP(=O)(c1ccccc1)c1ccccc1)N1CCCCC1	>57	-13%
CC(=O)Nc1ccc(-n2c(C)c(C(C)=O)c(C(C)=O)c2C)cc1	·	-17%
COC(=O)c1[nH]c2ccccc2c1NC(=O)CN1CCC(C(N)=O)(N2CCCCC2)CC1	>57	-17%
COC(=O)C(NS(C)(=O)=O)(c1c(C)[nH]c2ccccc12)C(F)(F)F (configuration not stated)	>57	6%
C=C/C(=C\C)C[C@@H](CC(=O)N[C@@H](CCC(=O)O)CC(=O)O)NC(=O)[C@@H]1CNCC[C@H]1NC(=O)C[C@@H](NC(=O)C[C@H](Cc1ccccc1)NC(=O)[C@@H]1CCCC[C@H]1N)C(C)C	>57	-2%
COc1cccc(C2CC(c3ccccc3OC)n3nc(N)nc3N2)c1 (configuration not stated)	>57	5%
O=C(NCc1ccccc1)c1cc(-n2cnnc2)ccc1Cl	>57	3%
CC(=O)Cc1nsc(NC(=O)c2ccc(-c3cc(C(F)(F)F)ccc3Cl)o2)n1	>57	-3%
C/C(Cl)=C/Cn1c(=O)c2c(nc(Br)n2Cc2ccccc2)n(C)c1=O	>57	-3%
CCn1c(Cc2c(C)[nH]c3ccccc23)nnc1SCC(N)=O	>57	2%
CCCCNC(=O)Nc1cc(C(F)(F)F)c[nH]c1=O	>57	-9%
Clc1ccccc1-c1nccc(-n2ccnc2)n1	>11	-6%
COc1cccc(C(CC(=O)NCc2ccco2)NS(=O)(=O)c2ccc(C)cc2)c1OC (configuration not stated)	>57	0%
CCOC(=O)Nc1ccc2c(c1)N(C(=O)CN1CCN3CCCC3C1)c1ccccc1CC2 (configuration not stated)	>57	-5%
CC(=O)NC(c1ccccc1)c1cccnc1 (configuration not stated)	·	-30%
CC(C)C[C@@H](CC(=O)N[C@@H](CCC(=O)O)CC(=O)O)NC(=O)[C@@H]1CNCC[C@H]1NC(=O)C[C@H](CCCN)NC(=O)C[C@H](Cc1c[nH]c2ccccc12)NC(=O)[C@@H]1CCCC[C@H]1N	>57	-7%
O=C(C(Cc1ccccc1)n1cccc1)N1CCN(C2CCCCC2)CC1 (configuration not stated)	>57	-22%
COc1ccccc1-c1cc(C(F)(F)F)nc(NCc2ccco2)n1	>57	?
Oc1c(Cl)cc(Cl)c(Cl)c1Cl	·	-12%
O=C(NCc1ccc(F)cc1)c1cc2n(n1)C(C(F)(F)F)CC(C1CC1)N2 (configuration not stated)	>57	-3%

Molecules above containing a Cl atom (eight):
SMILES	SmPrx2 inh	LT uptake inh
CN1CCN(C(=O)c2ccc(COc3ccc(Cl)cc3Cl)cc2)CC1	>57	-29%
O=C1CN(c2ccccc2Cl)C(=O)CN1c1ccccc1Cl	>57	2%
O=C(NCc1ccccc1Cl)C1CCN(S(=O)(=O)N2CCCCC2)CC1	>57	2%
O=C(NCc1ccccc1)c1cc(-n2cnnc2)ccc1Cl	>57	3%
CC(=O)Cc1nsc(NC(=O)c2ccc(-c3cc(C(F)(F)F)ccc3Cl)o2)n1	>57	-3%
C/C(Cl)=C/Cn1c(=O)c2c(nc(Br)n2Cc2ccccc2)n(C)c1=O	>57	-3%
Clc1ccccc1-c1nccc(-n2ccnc2)n1	>11	-6%
Oc1c(Cl)cc(Cl)c(Cl)c1Cl	·	-12%

The main list resumes, repeating the 2 entries before the break.
SMILES	SmPrx2 inh	LT uptake inh
Oc1c(Cl)cc(Cl)c(Cl)c1Cl	·	-12%
O=C(NCc1ccc(F)cc1)c1cc2n(n1)C(C(F)(F)F)CC(C1CC1)N2 (configuration not stated)	>57	-3%
CCC(C)(C)n1nnnc1C(c1cccs1)N1CCN(c2nc3ccccc3s2)CC1 (configuration not stated)	>57	-8%
CC(C)CC(c1nnnn1Cc1ccco1)N1CCN(C2CCCC2)CC1 (configuration not stated)	>57	-3%
CCOc1ccc(CCNC(=O)CCN2C(=O)COc3ccccc32)cc1OCC	>57	8%
CC(=O)Oc1ccc(N2C(=O)CCC2=O)cc1	>57	-5%
COc1ccc(C2=NOC(C(=O)N3CCCc4ccccc43)C2)cc1 (configuration not stated)	>57	-11%
Cc1ccc(C)c(N2CCN(C(=O)c3ccccc3Br)CC2)c1	>57	-17%
O=C(c1ccco1)N1CCN(C(=O)N2c3ccccc3Sc3ccccc32)CC1	>57	?
COc1ccc(CN2CC34C=CC(O3)C(C(=O)O)C4C2=O)cc1 (configuration not stated)	>57	1%
O=C1NC(=O)C(CC(=O)N(Cc2ccco2)C2(C(=O)NC3CCCC3)CCCCC2)N1 (configuration not stated)	>57	2%
COc1cccc(C=Nc2ccc3c(c2)OCCO3)c1O	>57	18%
COc1cc2c(C(=O)NCCCOC(C)C)cn(CC(C)C)c(=O)c2cc1OC	>57	-1%
COCCOC(=O)CC1=NC(=O)CS1	>57	-4%
Cc1ccc(-c2c(C#N)c(N)nc3c2CCCCC3)o1	>57	-8%
COc1ccc2[nH]cc(C(=O)CN3CCCCC3C)c2c1 (configuration not stated)	>57	-19%
Cc1ccc(OCCCC(=O)Nc2nncs2)cc1	>57	6%
Oc1ccccc1-c1cc(-c2cccc(F)c2)n[nH]1	>57	-11%
COc1ccc(-c2c(C)oc3cc(O)cc(O)c3c2=O)cc1OC	>57	0%
O=C(Cn1cnc2c(cnn2-c2ccc(F)cc2)c1=O)NCC1CCCO1 (configuration not stated)	>57	-2%
Cc1ccc(Nc2nc(N)nc(CN3CCCCCC3)n2)cc1	>57	16%
CC(C)(C)c1ccc(O)c(C[N+](C)(C)C)c1	>57	?
CC(C)n1c(CCC(=O)O)ccc1-c1ccccc1	>57	0%
CCOCCCNCc1cccc(OC)c1	>57	7%
Cc1ccccc1OCc1nc(-c2ccc(-n3cccc3)cc2)no1	>57	-15%
Cn1c(CNc2nc3ccccc3n2C)nc2ccccc21	·	1%
CC(C)C(C(=O)Nc1ccccc1)N1C(=O)c2ccccc2C1=O (configuration not stated)	>57	18%
CCOC(=O)C1=C(N)n2c(s/c(=C\c3cccnc3)c2=O)=C(C(=O)OCC)C1c1cccnc1 (configuration not stated)	>57	-11%
Cc1ccccc1NC(=O)CSc1nc(N)c(C#N)cc1C#N	>57	?
CC(C)CCNC(=O)C(c1ccco1)N(Cc1ccc(F)cc1)C(=O)c1snc(C(N)=O)c1N (configuration not stated)	>57	6%
COc1ccc(CN(Cc2nc3ccccc3c(=O)[nH]2)C(=O)C(C)(C)C)cc1	>57	-4%
O=C(NC1(C(=O)O)CCCC1)c1ccccc1	>57	-11%[8 µM]

Shown with two lines to a compound: part of the list above
Below each compound: SmPrx2 inh	LT uptake inh
CCOC(=O)C1=C(N)n2c(s/c(=C\c3cccnc3)c2=O)=C(C(=O)OCC)C1c1cccnc1 (configuration not stated)
 : >57	-11%
O=C(Cn1cnc2c(cnn2-c2ccc(F)cc2)c1=O)NCC1CCCO1 (configuration not stated)
 : >57	-2%

Additional entries:
SMILES	SmPrx2 inh	LT uptake inh
CC1(C)CC(NC(=O)C2CCCCC2C(=O)O)CC(C)(C)N1 (configuration not stated)	>57	-27%
O=C(NCCCN1CCCC1=O)c1cc(=O)c2ccccc2o1	>57	9%
Fc1ccccc1CSc1ncnc2c1oc1ccccc12	>57	-4%
Cc1cc2c(N)cccc2nn1	>57	-12%
COc1ccc(C(=O)N2CCc3cc(OC)c(OC)cc3C2)cc1OC	>57	6%
CCCCCc1nc2ccccc2c(=O)n1N	>57	-1%
C/C(=C\C(=O)c1ccc(C)cc1)Nc1cccc(O)c1	·	10µM*
CC1(C)Cc2c(sc3ncn4nc(CCC(=O)O)c(=O)nc4c23)CO1	>57	-1%
COC(=O)c1c(N)c(C#N)c2n1CCCCC2	>57	-3%
COc1ccc(-c2cc(C(=O)Nc3cccc(C(C)=O)c3)no2)cc1	>57	16%
CCCS(=O)(=O)N1CCCC(C(=O)N2CCN(c3ccccn3)CC2)C1 (configuration not stated)	>57	3%
O=C(Nc1ccc2c(c1)OCCO2)c1c(F)c(F)c(F)c(F)c1F	>57	?
CS(=O)(=O)Nc1ccc(OCc2ccccc2)cc1	>57	-8%
Cc1c(NC(=O)Cn2nc(C(=O)O)c3ccccc3c2=O)c(=O)n(-c2ccccc2)n1C	>57	-7%
Cc1cc(C)cc(N(C(C)C(=O)Nc2c(C)n(C)n(-c3ccccc3)c2=O)S(C)(=O)=O)c1 (configuration not stated)	>57	?
COc1cccc(C(=O)OC(C)CN2CCCC2)c1 (configuration not stated)	>57	-13%
CC(C)c1nnc(NC(=O)CCC(=O)NCC2CCCO2)s1 (configuration not stated)	>57	-8%
Cc1sc(NC(=O)CSc2nnnn2C2CCCC2)c(C#N)c1C	>57	-3%
O=C(Nc1ccon1)c1cccc(Cl)c1	>57	?
CC(c1nnc(SCn2nnc3ccccc3c2=O)n1-c1ccc(Cl)cc1)N(C)C (configuration not stated)	>57	6%
Cn1c(N)c(C(=O)CSc2nc3ccccc3n2-c2ccccc2)c(=O)n(C)c1=O	>57	1%
CSC1=C(C#N)C(CC(C)C)C(C(C)=O)=C(C)N1 (configuration not stated)	>57	-8%
CC(C)=CCC1(CC=C(C)C)C(=O)C(C(=O)c2ccccc2)=C2OC(C)(C)CCC2(CC=C(C)C)C1=O (configuration not stated)	·	-28%[8 µM]
CCOc1cc(C(=O)Nc2c3c(nn2C(C)(C)C)CS(=O)C3)cc(OCC)c1OCC (configuration not stated)	>57	10%
O=C(O)CSc1cccc2cccnc12	>57	-3%
COc1ccc(-c2ccc3c(n2)CCCN3C[C@H](O)CN2CCCc3nc(-c4ccc(Br)cc4)ccc32)cc1	·	-3%&7%[8 µM]
COc1cc(C2NC(=O)NC(C)=C2C(=O)OCc2ccccc2)ccc1O (configuration not stated)	·	-12%
COc1cc2c(c(OC)c1)C(c1ccncc1)CC(=O)N2 (configuration not stated)	>57	9%
COCCn1c(COc2ccccc2)nnc1SCC(N)=O	>57	2%
CC(C)(C)OC(=O)NCCc1nnc(S(=O)(=O)Cc2ccc(Cl)cc2Cl)o1	>57	?
COc1cccc(C(=O)Nc2c(F)c(F)c(F)c(F)c2F)c1	>57	-9%
CC(=O)C1=C(C)OC(N)=C(C(=O)OC(C)C)C12C(=O)Nc1ccccc12 (configuration not stated)	>57	-8%
COc1cccc(-c2cc(C(F)(F)F)nc(N3CCOCC3)n2)c1	>57	-11%
O=c1c(CCc2ccccc2)nc2cnc(N3CCOCC3)nc2n1C1CC1	>57	3%
CCOC(=O)c1cc(C(=O)OCC)c2cc(Br)ccc2n1	>57	0%
CCc1ccc(NC2=NC(C(=O)NC3CCCCC3)CC(=O)N2)cc1 (configuration not stated)	>57	4%
Cc1cc2ccccc2c(=O)n1CC(=O)NCC(=O)N1CCN(c2cccc(Cl)c2)CC1	>57	-6%
COC(=O)C1CCN(C(=O)COC(=O)Cn2cnnn2)CC1	>57	-1%

From PubChem
